High-throughput results: PubChem, several laboratories
Beta apoptosis: beta cell apoptosis inhibition; INS-1E cytokine-induced death, ATP luminescence, 48 h; percent of positive-control rescue, neutral wells zero; protection from apoptosis, % (test concentration not listed); actives 0.8% (n = 300,000);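 active = all replicates at 75% or more, or half of them and the mean; inconclusive = half reach 75% but not the mean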;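 note: 0% = cytokine-treated negative control wells and 100% = positive control rescue; higher means more ATP so stronger rescue from cytokine killing; wells of about 40 µL received 100 nL stock; the first replicate is given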
T cruzi inh: T. cruzi replication inhibition. T. cruzi beta-gal in NIH3T3, luminescence, 90 h. inhibition, % (concentration not given with the values). actives 1.4% (n = 300,000). AID 1885;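 active = mean inhibition across valid replicates above about 55%, limit read from the data; inconclusive = mean below that limit but half or more replicates reach it; inactive = mean below it, under half of replicates reach it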;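 note: signal also drops with host cell toxicity which is not excluded here; 0% = plate median of DMSO wells and 100% = zero luminescence signal; higher percent means less beta-gal luminescence so fewer parasites; stock transfer was 50 nL into about 50 µL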
Calb FLC: C. albicans growth modulation with fluconazole. C. albicans CaCi-2 (fluconazole-resistant clinical isolate) + fluconazole, Alamar Blue growth, 48 h. growth inhibition, % (concentration not given with the values). actives 0.57% (n = 300,000);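 active = most replicates above 75%; inconclusive = exactly half above 75%; inactive = most below 75%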;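 note: all wells also contain fluconazole at 8 µg/ml as a sub-toxic cotreatment; 0% = median of DMSO wells and 100% = median of geldanamycin control wells; wells of about 8 µL received 7.5 nL stock; the first replicate is given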
Vif TR-FRET: inhibitors of Vif binding to APOBEC3G peptide, primary screen, biochemical, TR-FRET, GST-Vif 1-94, biotin-A3G peptide, dose response retest (AID 1117319); TR-FRET GST-Vif / biotin-A3G peptide binding; higher % means a stronger effect; test concentration not given here; strong numbers were not always called active; inhibition, %, or IC50 in µM where a hit was titrated; actives 0.57% (n = 260,000);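 active = above the screen mean plus three standard deviations and confirmed in dose response; inconclusive = results disagree or hit not tested in dose response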;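 note: Vif residues 1-94 fused to GST binding biotinylated APOBEC3G peptide 110-148; 0% = full assay without inhibitor and 100% = GST in place of GST-Vif; retest series ran down from 100 µM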
Bfl-1 A1 inh: inhibitors of the anti-apoptotic protein A1, read as caspase activation. MEF A1-2A-BIM cells, Caspase-Glo 3/7 luminescence, 3 h; percent of clofoctol response, vehicle zero. caspase activation, % (no concentration beside the values). actives 0.066% (n = 330,000). AID 2462;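 active = over half of replicate activation scores above 10%, or exactly half above 10 with the replicate mean above 10; inconclusive = replicate mean below 10 yet half the replicates above 10; inactive = over half of replicates below 10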;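 note: wells of about 30 µL received 50 nL stock; many hits fall short of the cut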
MLL AF4-AF9 inh: blocks AF4 peptide binding to human AF9. AlphaScreen, biotin-AF4 peptide binding to FLAG-AF9. inhibition, % at 10 µM. actives 0.47% (n = 350,000);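 active = every replicate reaching a set inhibition limit, whatever the replicate mean, cut at about 25% in these data; inconclusive = mean inhibition reaches that limit but some replicates miss it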;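 note: 0% = plate neutral control median and 100% = total signal loss; the record names both 10 and 1 µM as test concentration; the first replicate is given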
RanGTP-Imp inh: inhibitors of RanGTP-importin-beta interaction, primary screen, biochemical, FRET, CFP-Ran, YFP-importin-beta, homogeneous; cell-free CFP-Ran/YFP-importin-beta FRET ratio; inhibition, % (no concentration beside the values); actives 1.1% (n = 300,000);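 active = most replicates above 15%; inconclusive = exactly half above 15%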;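 note: 0% = DMSO wells and 100% = Ran loaded with GDP instead of GTP; wells of about 40 µL received 100 nL stock; the first replicate is given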
LANA-H2A inh: blocks KSHV LANA binding to histone H2A/H2B. Q9QR71. cell-free LANA-H2A/H2B peptide, fluorescence polarization. inhibition, % (no concentration beside the values). actives 0.6% (n = 320,000); in the data active = inhibition mostly above about 10%, no sharp cut-off; inactive = mostly below about 6.7%;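 note: stock transfer was 7.5 nL into about 10 µL; 0% = median of vehicle wells and 100% = median of positive control wells; one replicate is shown; the record names a cut of 25% in any replicate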
Target sequence (Q9QR71 whole entry, looked up): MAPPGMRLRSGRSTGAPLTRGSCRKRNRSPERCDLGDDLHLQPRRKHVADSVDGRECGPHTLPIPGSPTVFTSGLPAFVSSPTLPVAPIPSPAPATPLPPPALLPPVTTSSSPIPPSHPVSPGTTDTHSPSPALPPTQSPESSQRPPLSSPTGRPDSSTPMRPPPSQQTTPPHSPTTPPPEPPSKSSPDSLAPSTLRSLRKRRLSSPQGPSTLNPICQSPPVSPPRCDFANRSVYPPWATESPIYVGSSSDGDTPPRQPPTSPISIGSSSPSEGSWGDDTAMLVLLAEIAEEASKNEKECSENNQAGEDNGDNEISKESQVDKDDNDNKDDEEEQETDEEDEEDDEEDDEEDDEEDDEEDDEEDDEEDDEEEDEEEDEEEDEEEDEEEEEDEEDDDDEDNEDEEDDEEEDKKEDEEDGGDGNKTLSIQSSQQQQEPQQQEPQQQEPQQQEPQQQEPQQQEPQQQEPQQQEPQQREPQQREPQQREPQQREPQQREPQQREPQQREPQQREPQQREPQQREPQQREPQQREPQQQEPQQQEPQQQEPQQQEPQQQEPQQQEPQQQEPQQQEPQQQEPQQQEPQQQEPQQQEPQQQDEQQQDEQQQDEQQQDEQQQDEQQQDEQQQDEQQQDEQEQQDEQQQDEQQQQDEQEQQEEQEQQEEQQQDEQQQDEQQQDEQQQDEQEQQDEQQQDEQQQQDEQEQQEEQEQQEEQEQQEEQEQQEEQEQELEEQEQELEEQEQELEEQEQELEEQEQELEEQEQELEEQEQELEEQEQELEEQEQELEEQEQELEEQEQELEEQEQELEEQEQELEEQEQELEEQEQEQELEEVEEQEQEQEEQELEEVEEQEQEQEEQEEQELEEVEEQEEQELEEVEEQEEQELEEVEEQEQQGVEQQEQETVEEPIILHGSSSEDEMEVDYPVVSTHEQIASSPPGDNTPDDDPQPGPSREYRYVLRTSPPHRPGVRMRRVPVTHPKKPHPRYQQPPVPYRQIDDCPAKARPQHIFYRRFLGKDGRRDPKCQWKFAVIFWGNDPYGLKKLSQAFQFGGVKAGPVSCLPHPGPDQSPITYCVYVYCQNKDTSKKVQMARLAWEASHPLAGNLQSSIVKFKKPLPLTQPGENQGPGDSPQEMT
Active calls of the source: *; ? = inconclusive; . = no result given; & = joins results of further samples.

SMILES	Beta apoptosis	T cruzi inh	Calb FLC	Vif TR-FRET	Bfl-1 A1 inh	MLL AF4-AF9 inh	RanGTP-Imp inh	LANA-H2A inh
O=C(CSc1nc2ccccc2c(=O)n1NC(=O)Cc1ccccc1)NCc1ccco1	-3	-8	-1	2%	0.0	.	1.0	1.3
O=C(COc1ccccc1Cl)Nc1ccccc1C(=O)N1CCOCC1	-8	-7	0	.	0.2	-0.2	-0.6	0.0
CN1/C(=C/c2cccc[n+]2CCO)Sc2ccccc21	15	-3	0	.	0.2	4.2	-2.6	13
C[C@@H]1CC[C@@]2(OC1)O[C@H]1C[C@H]3[C@@H]4CC=C5C[C@@H](O)[C@H](O)C[C@]5(C)C4CC[C@]3(C)[C@H]1[C@@H]2C (stereo not given in full)	19	-9	34	-2%	3.0	-3.3	-2.7	-2.9
Cc1ccc(C(=O)Nc2cccc(NC(=O)c3ccc(C)o3)n2)o1	0	3	19	4%	-1.2	-0.8	3.7	-3.6
C=CCSc1nc(C)c2cc(C)cc(C)c2n1	0	-3	16	-2%	-1.5	.	-1.0	-1.7
O=[N+]([O-])/C(=C\Nc1ccc(F)cc1F)S(=O)(=O)c1ccccc1	2	22	-4	-10%	-0.2	-4.9	0.0	3.6
CCc1ccc(C(=O)OCC(=O)NCC(F)(F)F)cc1	-1	-4	6	19%	-0.8	-2.0	0.2	5.0
CCC(NC(=O)c1ccccc1NC(=O)c1ccccc1)C(=O)NNC(=O)c1cccnc1 (stereo not given)	-6	7	-6	3%	-0.8	-1.2	-0.4	6.0
CCOc1cccc(C(=O)Nc2cccc(C(=O)NC(C)(C)C)c2)c1	3	3	-1	-5%	-0.2	.	0.8	-5.7
O=C(O)c1ccc(/C=N\Nc2ccccn2)cc1	.	-1	-3	.	-7.0	3.2	1.3	-1.3
Cc1ccc(-c2cc(-c3ccc4c(c3)OCO4)c(C#N)c(N)n2)o1	-7	15	26	7.1µM*	1.4	.	0.3	0.7
Cn1c(SCC(=O)NCc2ccc3c(c2)OCO3)nnc1C1COc2ccccc2O1 (stereo not given)	-1	-4	-2	-1%	1.1	.	0.7	-6.6
Cc1nc2ccccc2c(=O)n1NC(=O)c1cccc(Cl)c1	-1	-10	-3	-2%	-0.1	1.7	3.3	2.7
O=C(Nc1cccc(NC(=O)c2ccc(-c3cccc(Br)c3)o2)c1)c1ccco1	4	55*	10	-14%	0.9	.	-0.6	1.2
Cc1cccc(NC(=O)c2ccccc2OCC(=O)c2ccccc2)c1	-3	28	-3	-1%	1.7	.	2.3	0.0
CCOCCc1nnc(NC(=O)c2cccc(F)c2)s1	2	-8	8	0%	0.2	.	2.1	3.1
C/C(=N\NC(=O)c1cccc(S(=O)(=O)N2CCOCC2)c1)c1ccc(C#N)cc1	-4	-3	1	15%	-0.4	1.9	2.8	4.4
C/C(CC(=O)N1CCCC1)=N\NC(=O)c1cc2ccccc2cc1O	-5	-14	-5	?	-0.9	-7.9	?	0.5
Cc1cc2nnc(SCC(=O)NCC3CCCO3)n2c2ccccc12 (stereo not given)	9	0	-15	.	-0.1	-2.5	-1.6	4.9
C[C@@H](NC(=O)[C@@H]1Cc2ccccc2CN1C(=O)OC(C)(C)C)C(=O)NCC1CCCO1 (stereo not given in full)	-3	1	4	.	0.1	-0.6	-5.8	-3.2
CC(C)OP(=O)(OC(C)C)C(O)c1cccc([N+](=O)[O-])c1 (stereo not given)	-4	-7	-9	-1%	-0.1	-14	1.0	-0.2
CCOC(=O)N1CCN(c2cc(=O)n(-c3cccc(Br)c3)c(=O)[nH]2)CC1	-4	-1	10	-1%	0.4	-7.4	3.1	-1.4
CC(=O)OC1CC(c2cc(C(C)(C)C)c(O)c(C(C)(C)C)c2)=NO1 (stereo not given)	-11	7	-5	6%	-0.3	-1.2	5.1	0.6
COc1ccc(-c2cc(C(=O)O)sc2C)cc1	1	-11	11	.	-0.2	-2.4	1.1	3.6

Carrying on.
SMILES	Beta apoptosis	T cruzi inh	Calb FLC	Vif TR-FRET	Bfl-1 A1 inh	MLL AF4-AF9 inh	RanGTP-Imp inh	LANA-H2A inh
Cc1cc(Nc2cccc(F)c2)n2nc(C)nc2n1	-2	-6	-6	20%	0.3	-2.9	-1.9	0.8
Cc1cc(=O)n2nc(N3CCC(C(=O)NCc4ccc(F)cc4)CC3)sc2n1	-8	-19	?	.	-0.5	-1.8	2.3	-1.0
COc1ccc(N2CCN(C(=O)COC(=O)CNC(=O)c3ccc(Cl)cc3Cl)CC2)cc1	.	-7	0	3%	-0.1	9.2	-2.3	5.0
COc1cccc(N2C(=NC(=O)C3CCCO3)SC3CS(=O)(=O)CC32)c1 (stereo not given)	1	4	6	.	-1.8	-1.3	2.8	4.1
COc1ccc(-c2c(C3=CCCCC3)oc3ccc(-c4ccc5c(c4)OCO5)cc23)cn1	-3	-12	1	.	0.5	1.9	-5.2	2.5
COC(=O)c1ccc2c(=O)n(C3CCCCC3)c(SCC#N)nc2c1	9	11	-7	9%	0.5	.	2.1	2.4
O=S(=O)(Nc1ccc(N2CCOCC2)cc1)c1ccc(Cl)s1	0	-5	2	10%	-0.3	.	0.6	-3.1
COC(=O)c1ccc(N2CCN(C)CC2)c(NC(=O)c2ccc(-c3ccc(Cl)cc3)o2)c1	1	41	-5	.	2.7	.	1.1	-1.9
Cc1ccc(C(=O)OCC(=O)N2CC(=O)Nc3ccccc32)s1	-2	-4	0	-2%	0.4	.	-2.5	0.2
CCn1c(Cn2nnc(-c3ccccc3)n2)nnc1SCC(=O)Nc1cccc(C)c1C	1	-4	0	27%&2%	-0.1	.	-2.8	3.1
CN(C)S(=O)(=O)c1ccc(C(=O)NCC(=O)N/N=C/c2ccccc2)cc1	-1	2	6	-6%	0.2	-1.8	1.5	-6.2
Cc1ccc(S(=O)(=O)CCC(=O)N(C)C2CCCCC2)cc1	1	9	1	-12%	-0.3	-0.5	-2.2	-2.8
CCCn1c(SC(C)C(=O)NC2CC2)nnc1-c1ccncc1 (stereo not given)	-2	.	.	-12%	1.4	-4.0	.	5.2
O=C(O)c1ccc(N/N=C/C2=Cc3ccccc3OC2)cc1	-7	-9	29	?	-8.5	1.6	21*	3.0
Cn1cccc1C(=O)OCC(=O)Nc1sccc1C#N	-4	.	.	-9%	-12	-24	.	-2.0
Cn1c(SCC#N)nc2ccccc2c1=O	-13	-6	5	30%	0.8	0.0	1.6	-0.3
COc1ccc(-c2c(C#N)c(SCC(=O)c3cc4ccccc4oc3=O)nc(C)c2C(=O)Nc2ccccc2)cc1	5	-5	-13	-1%	-0.3	.	-4.6	0.0
Fc1ccc(CSc2nc3ccccc3[nH]2)cc1	-2	4	-15	-10%	-4.1	.	1.0	0.8
Cc1ccc(Cn2c(C)nc3ccc([N+](=O)[O-])cc3c2=O)cc1	.	13	2	.	-0.7	0.0	3.6	4.2
CCOC(=O)[C@H]1[C@H]2COc3ccc(Cl)cc3[C@@H]2N2C(=O)c3ccc(F)cc3NC(=O)[C@@]12C	-2	.	.	.	0.3	-1.6	.	15
Cc1ccc(C(=O)ON=C2CCN(S(=O)(=O)c3ccccc3)CC2)cc1	-9	-2	-4	0%	0.3	.	0.4	3.0
CCCCNC(=O)CN(CCc1ccccc1)S(C)(=O)=O	0	-10	-5	5%	-0.1	.	-5.5	3.0
CCCN(CCC)CCCNC(=O)c1ccc2c(c1)N(CC)C(=O)c1ccccc1S2=O (stereo not given)	.	5	-8	?	1.1	.	3.9	-5.3
Cn1cc(Br)c(C(=O)N2CCCCCC2)n1	.	-16	-6	.	.	-1.0	6.0	.
COc1cccc(CNS(=O)(=O)c2ccc3c(c2)N(C(C)=O)CCO3)c1	-1	-7	-3	.	0.1	-3.8	-3.6	-1.6

(further entries)
SMILES	Beta apoptosis	T cruzi inh	Calb FLC	Vif TR-FRET	Bfl-1 A1 inh	MLL AF4-AF9 inh	RanGTP-Imp inh	LANA-H2A inh
COC(=O)C(NC(C)=O)(Nc1sc2c(c1C(N)=O)CCCC2)C(F)(F)F (stereo not given)	4	3	1	3%	-0.1	-25	1.6	1.2
CCC(C)[C@@H](C(=O)Nc1ccc2c(c1)OCO2)N1Cc2ccccc2C1=O (stereo not given in full)	4	17	-3	98µM*	0.0	4.8	1.7	-4.0
O=C(CN1CCN(Cc2ccccc2)CC1)Nc1ccc(Br)cc1	-14	14	9	8%	?	2.0	5.5	-2.3
COCC(=O)N1CCC(Oc2ccc(C(=O)N3C[C@H]4CC[C@H]3C4)cc2)CC1	2	-12	-3	.	0.6	-1.4	1.7	-2.3
OC1(c2ccc(F)cc2)CCN(Cc2nnnn2Cc2cccs2)CC1	0	15	-9	3%	-1.4	.	0.5	-4.8
COc1ccc(N(C)C(=O)C2CCN(S(=O)(=O)c3cccc4nonc34)CC2)c(OC)c1	-3	-1	4	.	0.2	5.5	0.4	-0.8
Nc1ccc(C(=O)NC2CCSc3ccccc32)cc1[N+](=O)[O-] (stereo not given)	5	5	34	-4%	0.2	6.3	-2.7	-0.3
CCCCNC(=S)N(CCN(CC)CC)Cc1cc2cc3c(cc2[nH]c1=O)OCO3	-2	15	-3	6%	0.9	-5.4	-14	2.0
COCCNC(=O)c1cc(S(=O)(=O)N2CCCCC2)ccc1N1CCOCC1	-5	3	-5	-2%	0.1	5.8	2.1	6.5
CC(=O)NCCn1c(SCC(=O)NCCC(C)C)nc2ccccc2c1=O	0	-14	-3	-2%	0.3	.	-1.5	-1.6
CCCCN(Cc1cc2cc(OC)ccc2[nH]c1=O)C(=O)c1ccco1	-17	-1	1	13%	-0.1	.	-1.7	2.2
CCn1c(=NC(=O)CS(=O)(=O)c2ccc(F)cc2)sc2cccc(OC)c21	.	39	15	-9%	-0.3	-5.1	7.7	-3.3
Cc1ccc(-c2nc(CS(=O)CC(=O)N3CCN(c4ccc(F)cc4)CC3)c(C)o2)cc1 (stereo not given)	-8	5	13	5%	0.3	1.3	-0.5	5.5
CC1CC(Nc2ccccc2)c2ccccc2N1C(=O)c1cccnc1 (stereo not given)	0	1	14	5%	-0.2	.	2.2	-0.5
CN(Cc1nccn1C)C(=O)c1ccc2nc(Cc3ccccc3F)oc2c1	-6	-11	16	.	-0.5	1.7	-3.3	1.9
Cc1ccc(C)c(CSc2nnc(-c3ccccn3)n2N)c1	-4	17	-17	2%	-0.1	.	4.0	3.2
COc1ccc(Sc2nc(-c3ccccn3)ncc2OC)cc1	90*	63*	2	-8%	0.3	2.9	-0.1	2.3
NC(N)=Nc1cc2ccccc2c2ccccc12	59	2	3	5%	0.8	5.0	0.6	-1.4
CC(C)Oc1ncnc2c1[nH]c1ccccc12	24	-14	1	0%	-0.4	-3.7	1.5	0.4
Cc1cccc(C)c1N1CCN(S(=O)(=O)N2CCOCC2)CC1	-3	9	3	4%	-0.6	.	?	-1.9
Cc1cc(C(=O)NCC(c2cccs2)N2CCOCC2)ccc1[N+](=O)[O-] (stereo not given)	2	0	3	-6%	-0.3	17	-0.1	-2.7
N#C/C(=N\Nc1ccc(Br)cc1)C(=N)N1CCOCC1	1	-1	13	9%	0.0	8.6	-1.5	-0.6
Cn1c(SCC(=O)Nc2cccc(S(=O)(=O)NC3=NCCCCC3)c2)nnc1-c1ccccc1	3	6	7	19%	-0.4	0.8	3.1	0.0
